High-throughput results from PubChem.
nsP2pro inh = Primary qHTS for inhibitors of NSP2Pro chikungunya virus (CHIKV). Potency, µM (doses to about 24.9 µM), for inactives: at the top dose activity change, negative = inhibition, most hits filed as inhibitors. Polyprotein P1234 (Chikungunya virus (strain S27-African prototype)), Q8JUX6. FRET peptide cleavage, nsP2pro, fluorescence 1 h. 31,000 compounds, 1.1% hits; active means well fitted inhibition curve with a large enough effect; inconclusive means small, poorly fitted or top-dose-only effect; inactive means no such curve, though single readings can be large or run the other way; further: nearly all actives have a fitted effect of over 60% in size; a reference inhibitor and vehicle were the controls
Target sequence (Q8JUX6 whole entry, looked up): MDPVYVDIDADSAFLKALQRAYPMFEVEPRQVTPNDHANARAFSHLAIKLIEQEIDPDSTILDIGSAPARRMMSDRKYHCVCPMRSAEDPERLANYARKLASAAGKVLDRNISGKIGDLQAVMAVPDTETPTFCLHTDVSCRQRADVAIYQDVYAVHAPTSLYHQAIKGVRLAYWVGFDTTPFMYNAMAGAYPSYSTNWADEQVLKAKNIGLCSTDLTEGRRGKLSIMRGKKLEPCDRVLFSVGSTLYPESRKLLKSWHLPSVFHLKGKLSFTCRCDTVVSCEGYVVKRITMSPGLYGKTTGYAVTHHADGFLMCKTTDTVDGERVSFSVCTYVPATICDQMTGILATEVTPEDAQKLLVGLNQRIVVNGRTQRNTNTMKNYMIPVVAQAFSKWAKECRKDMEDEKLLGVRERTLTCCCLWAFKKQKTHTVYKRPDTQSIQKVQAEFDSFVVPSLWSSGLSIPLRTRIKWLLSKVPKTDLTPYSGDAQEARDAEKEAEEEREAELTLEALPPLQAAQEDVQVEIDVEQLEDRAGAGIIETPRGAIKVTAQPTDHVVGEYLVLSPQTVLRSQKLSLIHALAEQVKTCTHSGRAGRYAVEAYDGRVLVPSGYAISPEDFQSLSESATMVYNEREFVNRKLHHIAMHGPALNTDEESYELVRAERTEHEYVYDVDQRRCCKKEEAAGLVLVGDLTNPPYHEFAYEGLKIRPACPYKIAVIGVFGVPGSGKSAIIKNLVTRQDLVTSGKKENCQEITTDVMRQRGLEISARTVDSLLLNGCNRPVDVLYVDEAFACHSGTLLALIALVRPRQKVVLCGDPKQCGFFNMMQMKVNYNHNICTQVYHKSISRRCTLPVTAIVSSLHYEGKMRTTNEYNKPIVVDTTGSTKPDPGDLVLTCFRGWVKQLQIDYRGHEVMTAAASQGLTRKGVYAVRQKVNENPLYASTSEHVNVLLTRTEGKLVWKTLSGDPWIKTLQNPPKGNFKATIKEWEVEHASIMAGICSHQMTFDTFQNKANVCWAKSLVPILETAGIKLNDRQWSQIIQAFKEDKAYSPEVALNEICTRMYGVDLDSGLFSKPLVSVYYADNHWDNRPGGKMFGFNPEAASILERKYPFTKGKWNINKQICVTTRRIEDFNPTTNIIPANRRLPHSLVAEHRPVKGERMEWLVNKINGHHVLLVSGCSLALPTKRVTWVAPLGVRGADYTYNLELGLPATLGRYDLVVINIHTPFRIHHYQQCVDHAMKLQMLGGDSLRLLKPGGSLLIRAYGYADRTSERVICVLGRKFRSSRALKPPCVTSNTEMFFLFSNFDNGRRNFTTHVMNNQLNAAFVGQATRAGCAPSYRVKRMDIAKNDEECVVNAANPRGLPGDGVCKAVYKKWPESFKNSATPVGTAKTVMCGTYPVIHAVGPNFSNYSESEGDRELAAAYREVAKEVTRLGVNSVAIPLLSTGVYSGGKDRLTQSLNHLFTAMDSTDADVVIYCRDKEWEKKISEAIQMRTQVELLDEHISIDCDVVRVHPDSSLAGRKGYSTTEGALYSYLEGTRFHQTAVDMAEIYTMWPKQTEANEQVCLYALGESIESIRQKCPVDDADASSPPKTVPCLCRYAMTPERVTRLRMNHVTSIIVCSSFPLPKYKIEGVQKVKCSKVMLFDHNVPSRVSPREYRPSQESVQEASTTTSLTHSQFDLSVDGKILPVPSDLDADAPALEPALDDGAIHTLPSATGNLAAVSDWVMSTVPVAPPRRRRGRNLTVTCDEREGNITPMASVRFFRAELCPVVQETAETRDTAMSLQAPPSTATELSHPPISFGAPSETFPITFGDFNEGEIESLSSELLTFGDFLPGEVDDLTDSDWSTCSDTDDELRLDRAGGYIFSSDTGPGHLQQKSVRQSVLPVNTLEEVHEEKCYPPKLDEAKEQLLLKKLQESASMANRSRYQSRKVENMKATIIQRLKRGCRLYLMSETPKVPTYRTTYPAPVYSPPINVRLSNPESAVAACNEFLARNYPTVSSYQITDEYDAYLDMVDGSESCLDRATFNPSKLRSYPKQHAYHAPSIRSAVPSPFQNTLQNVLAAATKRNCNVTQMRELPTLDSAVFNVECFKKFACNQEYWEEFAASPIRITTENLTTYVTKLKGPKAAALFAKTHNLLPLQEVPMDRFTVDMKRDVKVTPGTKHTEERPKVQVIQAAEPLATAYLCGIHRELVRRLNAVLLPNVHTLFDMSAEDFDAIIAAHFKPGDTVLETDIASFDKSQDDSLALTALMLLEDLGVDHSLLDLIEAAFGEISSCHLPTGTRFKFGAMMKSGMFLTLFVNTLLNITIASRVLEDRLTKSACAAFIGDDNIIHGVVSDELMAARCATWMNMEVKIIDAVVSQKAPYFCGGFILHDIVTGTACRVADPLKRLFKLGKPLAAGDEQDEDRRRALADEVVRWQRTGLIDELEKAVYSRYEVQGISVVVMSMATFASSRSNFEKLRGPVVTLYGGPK
* marks the source's active call; other numbers are inactive results; i = inactive; ? = inconclusive; & = joins results of further samples; [ ] = remark or other dose. On the % scale 0 is the no-effect control and ±100 the full control effect; potency means the concentration at half of the fitted maximal effect. A portion of the library, so the mix of outcomes need not match the whole.

The first 6 compounds (preview)
SMILES	nsP2pro inh
CCOc1ccc(Cn2c(CNS(=O)(=O)c3c(C)cc(C)cc3C)nc3cccnc32)cc1	-14%
COc1ccc(CC(=O)N2CC(=O)Nc3ccc(F)cc3C2c2ccccc2)cc1 (centres undefined)	-21%
Cc1cccc(C(=O)N2CCC(N3CC4CC(C3)[C@H]3CCCC(=O)N3C4)CC2)c1 (some centres undefined)	i
Cc1onc(-c2cnn(C)c2NCc2ccc(C#N)cc2)c1C(=O)N1CCCC1	-21%[39.2 µM]
O=C1CC[C@@H](C(=O)O)N1	-9%
COc1ccccc1CN1CCN(C(=O)COc2cccc(C)c2)CC1	-5%

Results, from the start:
SMILES	nsP2pro inh
CCOc1ccc(Cn2c(CNS(=O)(=O)c3c(C)cc(C)cc3C)nc3cccnc32)cc1	-14%
COc1ccc(CC(=O)N2CC(=O)Nc3ccc(F)cc3C2c2ccccc2)cc1 (centres undefined)	-21%
Cc1cccc(C(=O)N2CCC(N3CC4CC(C3)[C@H]3CCCC(=O)N3C4)CC2)c1 (some centres undefined)	i
Cc1onc(-c2cnn(C)c2NCc2ccc(C#N)cc2)c1C(=O)N1CCCC1	-21%[39.2 µM]
O=C1CC[C@@H](C(=O)O)N1	-9%
COc1ccccc1CN1CCN(C(=O)COc2cccc(C)c2)CC1	-5%
Cc1cccc(N(C)C(=O)c2cc(S(=O)(=O)N3CCCCC3)c[nH]2)c1	-17%
O=C(N[C@H]1CCN2C(=O)c3cc(/C=C/c4ccccc4)ccc3NC(=O)[C@H]12)C1CCCC1	0%[39.2 µM]
CC(=O)N1CCCC(c2[nH]ccc2C(=O)NCc2cc(C)nn2C)C1 (centres undefined)	-8%
C=Cc1ccc(C(=O)N2CCCC(CCC(=O)N3CCN(c4ccccn4)CC3)C2)cc1 (centres undefined)	-3%
COP(=S)(OC)Oc1ccc(SC)c(C)c1	-4%
COc1ccccc1N1CCN(Cc2nnc(-c3ccccc3C)o2)CC1	-30%
C[N+](C)(CCCCCC[N+](C)(C)C1c2ccccc2-c2ccccc21)C1c2ccccc2-c2ccccc21	18%
CC(=O)Nc1ccc(-c2csc(N3CCC(C(N)=O)CC3)n2)cc1	i
O=C(N[C@@H]1CN(Cc2ccncc2F)C[C@H]1CO)C1CC1	-31%
Cc1cc(C)c2c(=O)cc(C(=O)Nc3ccc(S(=O)(=O)N(C)Cc4ccccc4)cc3)oc2c1	?
C=C1[C@H](OC(C)=O)[C@H]2[C@@H](OC(=O)c3ccccc3)[C@@H](C)C[C@]2(O)[C@@H](OC(C)=O)[C@H](C)/C=C/C(C)(C)C(=O)[C@H](OC(C)=O)[C@H]1OC(C)=O	6%[10 µM]
CCCNC(=O)CCc1ccnc(N2CCCC2)c1	5%
COc1ccccc1NC(=O)c1cc(S(=O)(=O)NCCc2ccccc2)ccc1F	11%
COc1cc(C2Oc3nc(SC)nnc3-c3ccccc3N2C(C)=O)cc(Cl)c1OC (centres undefined)	-11%
Nc1ncnc2c1ncn2[C@@H]1O[C@H](COP(=O)(O)OP(=O)(O)OP(=O)(O)O)[C@@H](O)[C@H]1O	4%[0.199 µM]
CC(=O)O[C@H]1[C@H](C)[C@@H](O)[C@H]2[C@@H]1C=C(C(=O)O)[C@H]1C[C@@H]3[C@H]([C@H]21)[C@H]1C(=O)O[C@@H]2CC[C@@]3(C)O[C@]1(O)[C@@H]2C	-3%[10 µM]
Cc1cc(N2CCC(NCc3cc(C)nn3C)CC2)nc(-c2ccccc2)n1	i
C=C1CC[C@H]2C(=C)CC[C@H]3C(=C)C(=O)O[C@@H]3[C@@H]12	3%
O=c1n(CCCN2CCN(c3cccc(Cl)c3)CC2)nc2ccccn12	-5%
O=C1OCC(c2ccccc2)=C1Cc1ccccc1	-1%
COc1ccc(C(=O)N2CCN(c3nc4c(C)c(Cl)ccc4s3)CC2)c(OC)c1	-3%
O=[S+]([O-])(Nc1ccc(-c2nc3ccccc3[nH]2)cc1)c1ccc2c(c1)OCO2	i
N#C/C(=C/c1ccc(Cl)cc1)c1nc(-c2ccc(Br)cc2)cs1	-19%
C=C1CC[C@H](O)C/C1=C\C=C1/CCC[C@]2(C)[C@@H]([C@H](C)CC[C@H](O)C(C)(C)O)CC[C@@H]12	-28%
NC(=O)C1CCN(c2nc(-c3cccc([N+](=O)[O-])c3)cs2)CC1	2%
Cc1ccc(Cl)cc1N1CCN(C(=O)Cn2ncc3c4ccccc4n(C)c3c2=O)CC1	-5%
C=CC1=C(C)/C(=C/c2[nH]c(Cc3[nH]c(/C=C4\NC(=O)C(C)=C4C=C)c(C)c3CCC(=O)O)c(CCC(=O)O)c2C)NC1=O	?
COc1cc(N2CCN(C)CC2)ccc1N	-11%
CCCOc1ccc(-c2nn(-c3ccccc3)cc2C2NC(=O)NC(C)=C2C(=O)OC)cc1 (centres undefined)	-9%
Nc1ccc(/C=C/C(=O)NCc2cc3cc(-c4ccc(C(=O)N5CCC(F)(F)CC5)cc4)cc(-c4ccc(F)cc4)c3o2)cn1	14%
Cc1noc(CN2C[C@H](NC(=O)CNS(C)(=O)=O)[C@@H](C3CC3)C2)n1	3%
Cn1nnnc1Sc1ncnc2scc(-c3ccccc3Cl)c12	-4%
C1=C(c2nc(-c3ccncc3)cc3c2ccn3Cc2cccnc2)CCOC1	?
N#Cc1cccc(NC(=O)Nc2nnc(-c3ccncc3)s2)c1	1%
COc1ccc(CCNC(=O)C2CCCN(c3nc4c(C)cc(C)cc4s3)C2)cc1OC (centres undefined)	-2%
COc1ccccc1C(=O)n1nc(-c2ccccc2)nc1NCc1ccc(Cl)cc1	-6%
O=C([O-])C[O-].[Pt+2]	-10%[10 µM]
COc1ccc(CCNC(=O)Cc2ccc(NC(=O)N3CCSc4ncccc43)cc2)cc1OC	-19%
COC(=O)c1ccccc1S(=O)(=O)Nc1cc(=O)c2ccccc2[nH]1	-2%
CC(C)c1ccc(Cc2cn3cc(-c4cc5ccccc5oc4=O)nc3s2)cc1	-13%
CC(C)COCC(CN(Cc1ccccc1)c1ccccc1)N1CCCC1 (centres undefined)	11%
COc1cc2c(cc1Oc1ccccc1)NC(=O)C21CCN(CC2CC2)CC1	i
O=C(CCC1N=C2c3ccccc3N=C(SCc3ccc(F)cc3)N2C1=O)N1CCN(c2ccccc2)CC1 (centres undefined)	-14%
CC(C)n1cnc2c(-c3cnc(N)nc3)nc(N3CCOCC3)nc21	-3%[10 µM]

(list continues)
SMILES	nsP2pro inh
C[C@H]1CN(Cc2ccc(CC(=O)N3CCC(Nc4cccc(F)c4)CC3)cc2)CCN1	6%
Cn1c(=O)c2c(nc(CN3CCN(C(=O)C4CC4)CC3)n2Cc2cccc(F)c2)n(C)c1=O	i
Cn1nnc2c(NCc3c(F)cccc3F)ncnc21	-20%
COc1ccc(CNC(=O)Cn2c(=O)nc(-c3ccccc3F)c3cc(Cl)ccc32)cc1OC	-7%
O=C(NCc1ccccc1Cl)c1cc2ccccc2o1	-5%
Cc1ncccc1OC1(C(=O)N2CCCC2c2nc(C(C)C)no2)CCNCC1 (centres undefined)	-6%
CC(C)(C)CC(C)(C)c1cc(Cc2cc(C(C)(C)CC(C)(C)C)cc(-n3nc4ccccc4n3)c2O)c(O)c(-n2nc3ccccc3n2)c1	-4%[2.68 µM]
COc1cccc(CCC(=O)NCCc2nc3ccccc3n2CCOc2ccc(C)cc2)c1	-8%
Cc1nc2cc(-c3cccc(F)c3)nn2c(C)c1CCC(=O)NC1CCCCC1	-7%
O=S(=O)(Nc1nc(-c2ccccc2C(F)(F)F)nc2ccccc12)c1ccc(-c2ccnc(C(F)(F)F)c2)cc1	i
CCNC(=O)CN1CCC(=O)N(Cc2ccc(F)cc2)C(C(C)C)C1 (centres undefined)	4%
C=CC(C)(CC/C=C(\C)C(=O)OC)OC1OC(COC(=O)CC(C)(O)CC(=O)O)C(O)C(O)C1O (centres undefined)	18%[10 µM]
Cc1ccccc1C(=O)Nc1ccc(C(=O)OCc2cc(=O)n3nc(C(C)C)sc3n2)cc1	-13%
CN[C@@H]1CCc2[nH]c3ccc(C(N)=O)cc3c2C1	-5%
COc1ccc(O)c(C2Nc3ccccc3C(=O)N2Cc2ccccc2)c1 (centres undefined)	?
O=C(Nc1cnn2ccc(N3CCC[C@@H]3c3cc(F)ccc3F)nc12)N1CC[C@H](O)C1	-8%
NS(=O)(=O)C#Cc1ccccc1	7.9µM*
O=C1Nc2ccccc2/C1=C\c1ccc([N+](=O)[O-])cc1	-9%&-13%
CC[C@H]1OC(=O)[C@](C)(F)C(=O)[C@H](C)[C@@H](O[C@@H]2O[C@H](C)C[C@H](N(C)C)[C@H]2O)[C@](C)(OC)C[C@@H](C)C(=O)[C@@H](C)[C@H]2N(CCCCn3cc(-c4cccc(N)c4)nn3)C(=O)O[C@]12C	53%[activator]
CC[C@@]1(C(=O)O)C[C@H](C(=O)N(C)CCO)[C@H](c2ccc(F)cc2)N1C	-5%

Given field by field: four of the compounds above.
molecule: C=C1CC[C@H](O)C/C1=C\C=C1/CCC[C@]2(C)[C@@H]([C@H](C)CC[C@H](O)C(C)(C)O)CC[C@@H]12
  nsP2pro inh: -28%

molecule: COc1ccccc1C(=O)n1nc(-c2ccccc2)nc1NCc1ccc(Cl)cc1
  nsP2pro inh: -6%

molecule: CCNC(=O)CN1CCC(=O)N(Cc2ccc(F)cc2)C(C(C)C)C1 (centres undefined)
  nsP2pro inh: 4%

molecule: Cc1cccc(N(C)C(=O)c2cc(S(=O)(=O)N3CCCCC3)c[nH]2)c1
  nsP2pro inh: -17%

(further entries)
SMILES	nsP2pro inh
COc1ccc(CC(=O)Nc2nc(-c3ccc4c(c3)CCN4C(=O)c3ccccc3C)c(C)s2)cc1	-9%
CCn1c(-c2nonc2N)nc2cncc(CNC3CCNCC3)c21	8%
COC(=O)c1ccc(O)c2ncc(-c3ccc(C(=O)N4CCNCC4)cc3)cc12	i
COc1ccc2cc3[n+](cc2c1OC)CCc1cc2c(cc1-3)OCO2	?
Oc1c(C(c2ccc(Cl)cc2Cl)N2CCCC2)sc2nc(-c3ccco3)nn12 (centres undefined)	-20%
COc1ccc(Cl)cc1NC(=O)c1cc2ccc3ccc(C)[nH]c3c2n1	5%
OCCOCCn1cnc(-c2ccccc2)c1-c1ccccc1Cn1cccn1	i
COc1cccc(CCc2ccccc2C(=O)N2CC[C@H](CO)[C@@H](O)C2)c1	i
Cc1cc(C)cc(C(=O)NOCCCCCC(=O)NO)c1	-22%&-5%&1%
CNC(=O)[C@@H]1CN(C(=O)CCc2cccc(OC)c2)C[C@H]1c1n[nH]c(C)n1	-7%
COc1ccc(C(=O)COC(=O)c2cccc(NC(=O)c3ccc(OC)c(OC)c3)c2)cc1	-1%
O=C(Cc1ccc(-n2cnnn2)cc1)N[C@@H]1COCC[C@@H]1OCc1ccccc1	-3%
COc1cc(NC(=O)Cn2ccc3ccccc3c2=O)cc(OC)c1OC	-19%
O=c1[nH]cnc2nc[nH]c12	-9%
C=C1C(=O)OC2CC3(C)C(CC12)C(C)=CC(O)C3OC(C)=O (centres undefined)	126%[activator]
O=C(OCC#CCSc1nnc(-c2cccc3ccccc23)o1)c1cc(F)c(F)c(F)c1	2%
CCCn1c(-c2ccc(F)cc2)nc2c(NC3CCN(Cc4ccccc4)C3)nc(C)nc21 (centres undefined)	i
Cc1cccc(C)c1OCC(C)N (centres undefined)	-1%
CCc1ccc(N2C(=O)CC(c3cc(OC)ccc3OC)C3=C2COC3=O)cc1 (centres undefined)	4%
Cc1ccc(-c2cn(C3CN(C(=O)C4CCC4)C3)nn2)cc1	-6%

Shown in CSV form: two of the compounds above
SMILES,nsP2pro inh
CCCn1c(-c2ccc(F)cc2)nc2c(NC3CCN(Cc4ccccc4)C3)nc(C)nc21 (centres undefined),i
Cc1cccc(C)c1OCC(C)N (centres undefined),-1%

The listing continues.
SMILES	nsP2pro inh
O=C(CSc1oc(-c2ccccc2)nc1S(=O)(=O)c1ccccc1)c1ccccc1	-25%
O=S(=O)(Nc1cccc(-c2ccc(N3CCCC3)nn2)c1)c1ccc(F)cc1F	-14%
CC(=O)N1C[C@@H](CN(C)C)[C@H](NC(=O)Cc2ccc(OC(F)(F)F)cc2)C1	2%
COc1ccc(C(=O)N(Cc2ccco2)Cc2cccs2)c(O)c1	?
CC(=O)OCC1=C(C(=O)O)N2C(=O)[C@@H](NC(=O)[C@H](N)c3ccccc3)[C@H]2SC1	-19%
Cc1cccc(CNC(=O)c2ccc(NC(=O)N3CCSc4ncccc43)cc2)c1	-20%
CCOC(=O)C1CCN(c2cc3c(cc2NC(=O)c2ccccc2Cl)n(C)c(=O)n3C)CC1	-19%
O=C(c1ccc(CS(=O)c2ccccc2Cl)o1)N1CCN(c2cccc(C(F)(F)F)c2)CC1 (centres undefined)	-2%
CC(C)(C)NCC(O)c1ccc(O)c(CO)n1 (centres undefined)	36%[activator]
CC(C)(C)OC(=O)N1CCC(c2c(C(=O)NCCN3CCOCC3)cnn2-c2ccc(F)cc2F)CC1	26%
CCN1CC2(COC)C3[C@@H](OC)C4C1C3(C1C[C@]3(O)[C@H](OC(=O)c5ccccc5)C1[C@]4(OC(C)=O)[C@@H](O)[C@@H]3OC)[C@H](OC)C[C@H]2O (some centres undefined)	13%
Cc1c(Cl)cccc1NC(=O)C(C)n1c(=O)cc(C)c2c(C)nn(-c3ccccc3)c21 (centres undefined)	20%
O=C(O)C1CCC(C(=O)Nc2ccc([S+](=O)([O-])Nc3nccs3)cc2)CC1 (centres undefined)	-4%
Cn1c(=O)c2sccc2n2c(CCCC(=O)NC3CCCCC3)nnc12	-19%
CCOC(=O)c1c(C)[nH]c(C)c1S(=O)(=O)N1CCN(c2cccc(C(F)(F)F)c2)CC1	-9%
COCCCNC(=O)CCc1c(C)nc2nc(-c3cc(OC)cc(OC)c3)nn2c1C	-4%
O=C(CN1CCN(Cc2ccccc2Cl)C1=O)NCCc1ccc(Cl)cc1	-18%
